Source: PubChem
Rango dissoc inh = prevents RanGTP from dissociating the Rango-importin beta complex | O95149+P62826 | Biochemical FRET Rango-importin beta, RanGTP-induced dissociation | Potency, µM (highest dose often 46.1 µM), for the others: at the highest dose activity change, negative = inhibition | 340,000 compounds, 0.071% hits | AID 540253; active means falling FRET ratio curve, often poorly fitted, with flat reads before Ran was added; inconclusive means other falling curves, or compound fluorescence or quenching; inactive means flat or rising ratio curve;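 also: potency is read from the fitted curve at half-maximal effect; % of control where 0% means no effect; nearly all actives have a fitted effect of over 45% in size; -100% = wells without RanGTP and RCC1; the record marks most hits as doubtful in a second field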
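Compounds preincubate 5 min with complex of recombinant Rango and importin beta in PBS with 1 mM DTT. Ran (0.6 uM) loaded with 2 mM GTP plus 0.2 uM RCC1 starts dissociation; FRET is recorded 45 min later.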
Rango-impB inh = prevents formation of the Rango-importin beta complex | 340,000 compounds, 0.031% hits | Potency, µM (series often up to 92.2 µM), for the others: top-dose inhibition of complex formation | Q14974 | Rango CFP/YFP FRET sensor + importin beta, 45 min | AID 540263; active = rising FRET ratio curve, often small or poorly fitted; inconclusive = mostly compound fluorescence or quenching in the first reads; inactive = flat curves in all reads;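 also: potency is read from the fitted curve at half-maximal effect; 0% = DMSO wells and 100% = buffer wells lacking importin beta; nearly all actives have a fitted effect of over 15% in size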
Target sequence (Q14974 whole entry, looked up): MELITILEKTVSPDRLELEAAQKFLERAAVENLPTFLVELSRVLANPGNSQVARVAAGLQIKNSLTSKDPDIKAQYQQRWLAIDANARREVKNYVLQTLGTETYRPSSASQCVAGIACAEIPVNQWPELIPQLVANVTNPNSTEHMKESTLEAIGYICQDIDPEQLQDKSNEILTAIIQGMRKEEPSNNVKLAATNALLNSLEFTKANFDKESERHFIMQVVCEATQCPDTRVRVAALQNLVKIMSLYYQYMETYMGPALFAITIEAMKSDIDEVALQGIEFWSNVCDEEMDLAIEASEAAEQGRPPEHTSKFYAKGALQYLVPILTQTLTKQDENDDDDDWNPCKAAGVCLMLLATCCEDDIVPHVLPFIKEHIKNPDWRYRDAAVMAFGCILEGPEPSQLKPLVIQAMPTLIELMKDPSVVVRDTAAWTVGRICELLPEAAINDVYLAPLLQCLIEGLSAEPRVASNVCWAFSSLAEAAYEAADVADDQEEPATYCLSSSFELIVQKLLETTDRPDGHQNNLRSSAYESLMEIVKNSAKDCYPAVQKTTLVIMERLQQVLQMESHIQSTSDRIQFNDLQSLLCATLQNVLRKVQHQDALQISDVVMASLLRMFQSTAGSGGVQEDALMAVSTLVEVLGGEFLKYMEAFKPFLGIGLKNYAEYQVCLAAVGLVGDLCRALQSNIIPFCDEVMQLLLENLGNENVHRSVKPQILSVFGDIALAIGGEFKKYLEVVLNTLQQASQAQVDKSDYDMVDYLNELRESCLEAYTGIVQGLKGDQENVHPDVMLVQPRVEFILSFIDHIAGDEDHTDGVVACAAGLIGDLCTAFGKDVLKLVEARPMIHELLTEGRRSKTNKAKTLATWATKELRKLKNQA
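FRET biosensor Rango (snurportin 1 IBB between N-terminal EYFP and C-terminal Cerulean), 50 nM in PBS/1 mM DTT/0.02% Tween-20/0.1% BSA, preincubated 5 min RT with compound; 0.125 microM importin beta added, 45 min RT, CFP/YFP FRET ratio read.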
miR-21 FLuc = raises the signal of a miR-21 reporter. HeLa miR-21 FLuc reporter, luciferase, 48 h. Potency, µM (series often up to 38.3 µM), for the others: top-dose reporter change, positive = more light. 340,000 tested, under 10 active. AID 2288; active = well fitted rising curve with a large enough effect; inconclusive = small, poorly fitted or top-dose-only effect; inactive = no such curve, though single readings can be large or run the other way;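 also: % of control where 0% means no effect; miR-21 action dims this reporter so a rising signal means less miR-21 action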
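HeLa cells endogenously expressing miR-21, stably carrying CMV-driven firefly luciferase with a downstream miR-21 binding site, 2000 cells/well. Titrations up to approximately 40 uM, 48 hours; luciferase luminescence read.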
GLA inh pH 4.5 = alpha-galactosidase A (human) inhibition, pH 4.5; purified enzyme, 4-MU-alpha-Gal fluorescence, pH 4.5; activity change, negative = inhibition, % at 105 µM; 230,000 tested, under 10 active; AID 1467; inconclusive = small, poorly fitted or top-dose-only inhibition, or a rising curve; inactive = flat fitted curve, though single readings scatter; no compound was filed as active;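 also: 0% = full activity with enzyme and -100% = basal without enzyme; dose as in the result columns while the protocol names 77 µM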
Starred values were filed as active, the others as inactive; ? = inconclusive; . = not tested or not shown; & = joins results of further samples.

Rango dissoc inh | Rango-impB inh | miR-21 FLuc | GLA inh pH 4.5 | smiles
2% | 0.4% | -1% | -7 | COc1ccc(/C=C/C(=O)NCC(=O)n2nc(C)cc2C)cc1
14% | -2.3% | -4% | 10 | COc1ccc(NC(=O)NCc2ccco2)c(OC)c1
11% | 0.1% | -18% | -24 | COc1ccc(-c2cnn3c(N)c(S(=O)(=O)C(C)(C)C)cnc23)cc1
19% | 3.0% | -5% | 5 | COC(=O)C(NC(=O)C(NC(=O)c1ccccc1)C(C)C)C(C)C (stereo not given)
-13% | 0.3% | 18% | . | NC(=O)CC(NC(=O)c1ccc(Br)cc1)c1ccc(N2CCCCCC2)c([N+](=O)[O-])c1 (stereo not given)
29% | -1.6% | 1% | 2 | Cc1[nH]c(=O)nc2c1CCC2
24% | 3.9% | -33% | . | CSc1ccccc1NC(=S)NCc1ccc(Cl)cc1
? | ? | -14% | -3 | O=c1c2cc(N3CCOCC3)ccc2[nH]c(=S)n1CCc1ccccc1
1% | -2.6% | . | . | CC1CC(=O)Nc2ccccc2N1C(=O)CSc1nnnn1C(C)C (stereo not given)
-8% | 1.1% | -7% | -1 | CS(=O)(=O)N1CCN(C(=O)COc2ccc3ccccc3c2)CC1
2% | 0.6% | -13% | -4 | CCOc1cc(CNCCc2ccccc2)ccc1OCC(=O)NC(C)(C)C
-6% | 4.3% | -53% | -8 | COc1ccccc1C(=O)Nc1nsc(-c2ccccc2)n1
2% | 1.8% | 5% | . | O=C(Cn1cc(S(=O)(=O)Cc2ccc([N+](=O)[O-])cc2)c2ccccc21)N1CCOCC1
11% | -0.6% | -5% | . | Fc1ccc(-n2nnc(-c3ccccc3)n2)cc1
0% | 0.6% | . | . | CC[C@@]1(C(=O)OC)N[C@H](CN(C)S(=O)(=O)c2ccc(OC)cc2)[C@@H]2C(=O)N(C)C(=O)[C@@H]21
-12% | 0.3% | 0%&2% | . | COc1ccc(N(CC(=O)NC(C)c2ccccc2)S(=O)(=O)c2c(C)noc2C)cc1 (stereo not given)
1% | 3.4% | 0% | 4 | CCOC(=O)N1CCN(CC(O)COCc2ccccc2)CC1 (stereo not given)
3% | 1.9% | -55% | -6 | Cc1cnc(C(=O)Nc2ccccc2F)cn1
-2% | 0.0% | -10% | 7 | CCn1nnnc1NC(=O)c1cc(Cl)c(OC)c(Cl)c1
20% | -4.3% | 0% | 10 | CCN(CC)C(=O)CN(c1ccc(F)c(Cl)c1)S(C)(=O)=O

Molecules shown so far that have a halogen, in the order listed:
Rango dissoc inh | Rango-impB inh | miR-21 FLuc | GLA inh pH 4.5 | smiles
-13% | 0.3% | 18% | . | NC(=O)CC(NC(=O)c1ccc(Br)cc1)c1ccc(N2CCCCCC2)c([N+](=O)[O-])c1 (stereo not given)
24% | 3.9% | -33% | . | CSc1ccccc1NC(=S)NCc1ccc(Cl)cc1
11% | -0.6% | -5% | . | Fc1ccc(-n2nnc(-c3ccccc3)n2)cc1
3% | 1.9% | -55% | -6 | Cc1cnc(C(=O)Nc2ccccc2F)cn1
-2% | 0.0% | -10% | 7 | CCn1nnnc1NC(=O)c1cc(Cl)c(OC)c(Cl)c1
20% | -4.3% | 0% | 10 | CCN(CC)C(=O)CN(c1ccc(F)c(Cl)c1)S(C)(=O)=O

(more compounds)
Rango dissoc inh | Rango-impB inh | miR-21 FLuc | GLA inh pH 4.5 | smiles
0% | -0.9% | -5% | . | CCOc1cc(C2C3=C(CC(C)(C)CC3=O)N(CCCOC)C3=C2C(=O)CC(C)(C)C3)ccc1OC
-10% | 2.0% | -7% | 2 | COC(=O)c1cc(Br)c(=O)n(CCN2CCCCC2)c1
-5% | 0.1% | -48% | 1 | CCNC(=O)NC(=O)C(C)Oc1ccc(Br)cc1Br (stereo not given)
-8% | 4.6% | 2% | 0 | C=CCOc1c(Cl)cc(CNc2ccc(N(C)C)cc2)cc1OC
-1% | -3.5% | . | . | COc1ccc(Cl)cc1NS(=O)(=O)c1cccc(C(=O)NC2CCC(O)CC2)c1 (stereo not given)
13% | 4.3% | 5% | -11 | O=c1[nH]c(=O)c2cc([N+](=O)[O-])cc([N+](=O)[O-])c2[nH]1
-17% | ? | 5% | 0 | N#CC1CC(c2ccccc2)Nc2cc(Cl)ccc2N1 (stereo not given)
-14% | 6.5% | -7% | -13 | O=C(/C=C/c1ccc(N2CCCCC2)c([N+](=O)[O-])c1)c1ccc(S(=O)(=O)N2CCCC2)cc1
20% | 3.2% | -5% | -3 | CCOC(=O)N1CCN(C(=O)CN(C)S(=O)(=O)c2ccc(OC)c(OC)c2)CC1
15% | ? | 1% | -3 | COCC(C)n1c(SCc2nc(N)nc(Nc3ccccc3C)n2)nc2ccccc2c1=O (stereo not given)
-5% | 4.3% | 2% | 9 | Nc1ccc(C(=O)Nc2ccc3nc(-c4ccncc4)[nH]c3c2)cc1
0% | 0.3% | -12% | . | CCN(CC)S(=O)(=O)c1ccc(N2CCCC2)c(NC(=O)Cc2c(F)cccc2Cl)c1
19% | 10% | . | . | O=C1NC(=S)SC1=Cc1cc(Br)ccc1O
-7% | -0.7% | -1% | 3 | Cc1nc2oc3c(NCc4ccccn4)ncnc3c2c2c1COC(C)(C)C2
0% | -0.6% | -3% | ? | O=C(OC(C(=O)Nc1cccc(C(F)(F)F)c1)c1ccccc1)C1CCCCC1 (stereo not given)
1% | 10% | -1% | -6 | CCCOc1ccc(C(CC(=O)O)NC(=O)c2cccs2)cc1 (stereo not given)
1% | -1.1% | -21% | 7 | Cc1ccc(OCc2nc3ccccc3[nH]2)cc1
1% | 2.0% | -28% | . | Cc1cc(=O)oc2cc(NC(=O)Cc3ccccc3)ccc12
0% | 0.7% | -18% | 12 | CSc1ccc2[nH]c(=O)cc(C)c2c1
-2% | 2.5% | -2% | 1 | COc1cc(CNC2CCCCCC2)cc(OC)c1O
23% | -2.5% | -3% | . | O=C(Cc1n[nH]c(=O)c2ccccc12)N/N=C/c1cc2c(cc1Cl)OCO2
1% | -5.8% | 9% | . | CC1CCCN(S(=O)(=O)c2ccc3[nH]c4c(c3c2)CCCC4)C1 (stereo not given)
? | 5.7% | -60% | . | O=C(COc1ccc2ccccc2c1Br)N1CCCCC1
-22% | 0.8% | -12% | 0 | Cc1ccc(S(=O)(=O)N2CCOCC2)c2nsnc12
2% | -0.1% | . | . | COc1cccc(-c2ccc3ncnc(NCc4cc(C)cs4)c3c2)c1
-14% | -1.9% | -6% | -12 | CCC(NC(=O)c1cccc(Cn2nc(C)c([N+](=O)[O-])c2C)c1)c1ccc(C(C)C)cc1 (stereo not given)
9% | -2.9% | . | . | O=C(OCC#CCSc1nnc(-c2cccc3ccccc23)o1)c1cc2ccccc2o1
2% | 0.3% | 14% | -11 | CCOc1ccc(N(CC)S(=O)(=O)c2ccc3c(c2)oc(=O)n3C)cc1
5% | -0.1% | 3% | -27 | CCN(CC)C(=O)CSc1nc2c(c(-c3cccnc3)c1C#N)CCCC2
1% | -1.2% | -2% | 3 | CNC1(c2nnnn2-c2c(C)cccc2C)CCOC(C)(C)C1 (stereo not given)
11% | -0.8% | 0% | -1 | Cc1cc(C)cc(N2C(=O)C3NN=C(C(=O)OCc4ccccc4)C3C2=O)c1 (stereo not given)
-5% | 1.4% | -15% | . | Cc1oc2cc3oc(=O)c(CCC(=O)NCCCn4ccnc4)c(C)c3cc2c1C
-18% | 0.6% | -9% | 6 | CCOc1ccc2[nH]c(=O)c(CN(CCN3CCOCC3)Cc3nnnn3C(C)(C)CC)cc2c1
-14% | 3.8% | -61% | . | COc1cccc(/C(C)=N/N=C(\C)c2cccc(OC)c2)c1
14% | 5.1% | -10% | -3 | Cc1cccc(OCC(=O)NNC(=O)Nc2cccc(Cl)c2)c1C
-25% | -3.2% | -4% | 1 | O=C(NC1CCCc2ccccc21)C1CCN(S(=O)(=O)c2cccc3nonc23)CC1 (stereo not given)
20% | 2.7% | -4% | . | CC(=O)c1cccc(N(C(=O)c2ccco2)C(C(=O)NC2CCCC2)c2ccccc2F)c1 (stereo not given)
28% | -0.1% | . | 6 | CCOC(=O)CN1C(=O)N[C@@H](c2cccc(C(F)(F)F)c2)[C@H](C(C)=O)[C@H]1C
4% | 1.3% | -7% | . | CC(C)(C)c1cc(C(=O)NCCCn2ccnc2)cc(C(C)(C)C)c1
0% | 1.4% | ? | -5 | Cc1cc(F)ccc1S(=O)(=O)Nc1ccccc1C(=O)Nc1ccccc1-c1nc2ccccc2[nH]1
1% | 2.5% | . | . | Cc1cccc(N2Cc3ccc(Br)cc3C2)c1
13% | -0.5% | . | . | CCN(CC)S(=O)(=O)c1cc(NC(=O)C2=COCCO2)ccc1Cl
-10% | -1.7% | -2% | 2 | C/C=C(\C)C(=O)NCCN1C2=NC[C@@H](C)N2C[C@@H]1Cc1ccc(OC)cc1
-10% | ? | -17% | -5 | NC(=O)c1c(NC(=O)CSc2nc(N)cc(=O)[nH]2)sc2c1CCCC2
7% | -0.9% | 1% | 10 | CCCCC(CC)C(=O)Nc1cc([N+](=O)[O-])ccc1F (stereo not given)
1% | -4.7% | 5% | -1 | CC1CC2=C(NC(=S)NC2c2ccc(F)cc2)/C(=C/c2ccc(F)cc2)C1 (stereo not given)
8% | -4.0% | -2% | -3 | CCOC(=O)Nc1ccc(S(=O)(=O)N2CCOCC2)cc1
2% | -1.9% | -44% | . | Cc1cc(NC(=O)OC2CCCCC2)ccc1[N+](=O)[O-]
13% | ? | . | . | COc1cc(OC)cc(C(=O)NCC(=O)OCC(=O)Nc2ccc(C)c(S(=O)(=O)N3CCOCC3)c2)c1
8% | -3.6% | -12% | 1 | C/C(=N\Nc1ccc(S(N)(=O)=O)cc1[N+](=O)[O-])c1ccc2c(c1)OCO2

(further entries)
Rango dissoc inh | Rango-impB inh | miR-21 FLuc | GLA inh pH 4.5 | smiles
4% | 2.2% | -1% | . | O=C(c1c[nH]c(C(=O)C(Cl)(Cl)Cl)c1)c1c(F)cccc1F
5% | 4.0% | -2% | 8 | CC(=O)Nc1cccc2ncccc12
16% | -0.2% | 0% | -29 | C/C(CC(=O)Nc1ccccc1[N+](=O)[O-])=N\NC(=O)COc1ccccc1C
15% | 5.9% | -4% | -1 | Cc1ccccc1OCC(=O)N/N=C/c1cccc(Oc2ccc([N+](=O)[O-])cc2[N+](=O)[O-])c1
2% | 3.9% | 0% | . | CC1(C)CC(=O)C=C(Nc2ccc3c(c2)CCC3)C1
-10% | -0.2% | -5% | 0 | C/C(CC1(O)/C(=N/O)CCc2nonc21)=N\O (stereo not given)
15% | 4.7% | 5% | . | COCCNC(=O)Cc1c(C)c2c(cc(C)c3c(C(C)(C)C)coc32)oc1=O
2% | -2.2% | 1% | . | O=C(OCCCN=C1NS(=O)(=O)c2ccccc21)c1ccccc1
0% | -0.1% | -63% | -8 | O=C(Cc1ccccc1[N+](=O)[O-])NCc1ccc2c(c1)OCO2
2% | 4.2% | -1% | ? | CS(=O)(=O)N(CC(=O)N1CCN(c2ccccc2F)CC1)C1CCCCC1
-8% | 1.1% | 2% | -6 | FC(F)(F)c1cccc(Oc2nc(-c3ccccc3)nnc2C(F)(F)F)c1
-13% | -4.6% | . | . | CCCCCO
41% | -0.6% | -8%&-39% | . | Cc1cc(C)c2oc(C(=O)Nc3ccc(S(=O)(=O)Nc4nccc(C)n4)cc3)cc(=O)c2c1
1% | -0.4% | . | . | CC1=C(C(=O)OCc2cc(C)on2)N2C(=O)[C@@H](NC(=O)OCc3cc(C)on3)[C@H]2SC1
-24% | -0.9% | 0% | . | COc1cc(/C=C2\SC(N)=NC2=O)cc(OC)c1
1% | -0.1% | -4% | -12 | CC[n+]1c(/C=C(\C)OC)sc2ccccc21
-5% | -0.8% | -5% | . | COc1ccc(C(C)=O)cc1CC(=O)NC1CCCCCC1
-4% | -4.8% | 1% | -5 | COc1ccccc1NC(=O)NCc1ccco1
8% | 1.5% | -1% | -2 | Cc1ccc(CNC(=O)COC(=O)C2CCN(S(=O)(=O)c3cccs3)CC2)cc1

An excerpt; count on the stated rates, not on these rows.
